SARS PLpro yeast: SARS-CoV PLP inhibition in yeast; S. cerevisiae expressing SARS-CoV PLpro, growth rescue; control for the full effect not named in the record; Potency, µM (series often up to 32.9 µM), without a hit: at the top dose activity, positive = growth rescue; actives 0.19% (n = 330,000); AID 485353; active means well fitted rising curve with a large enough effect; inconclusive means small, poorly fitted or top-dose-only effect; inactive means no such curve, though single readings can be large or run the other way; also: 0% is about no effect; nearly all actives have a fitted effect of over 55% in size; growth read by luminescence after 48 h
Cruzain inh noDet: cruzain (T. cruzi) inhibition without detergent. actives 2.3% (n = 200,000). Potency, µM, for the others: max response, negative = inhibition, most hits filed as inhibitors. purified cruzain, Z-FR-AMC fluorescence, no detergent;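 also: plate controls were enzyme without inhibitor for no effect and buffer without enzyme for full effect; nearly all actives have a fitted effect of over 40% in size; top concentration of the series not given in the record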
Target sequence (P25779 123-467 limits assumed): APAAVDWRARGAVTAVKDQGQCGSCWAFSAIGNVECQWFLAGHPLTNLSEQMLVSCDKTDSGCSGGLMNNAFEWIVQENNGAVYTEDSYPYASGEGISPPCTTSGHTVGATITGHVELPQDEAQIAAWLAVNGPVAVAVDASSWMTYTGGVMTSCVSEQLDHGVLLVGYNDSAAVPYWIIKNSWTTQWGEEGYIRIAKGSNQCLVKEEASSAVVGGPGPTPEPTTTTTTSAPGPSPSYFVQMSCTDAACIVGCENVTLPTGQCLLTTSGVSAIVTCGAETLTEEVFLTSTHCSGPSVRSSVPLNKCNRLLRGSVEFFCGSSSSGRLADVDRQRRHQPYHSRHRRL
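Purified cruzain at 1.5 nM, pre-incubated 15 min with compound at room temperature in 100 mM sodium acetate pH 5.5, 5 mM DTT, 0.00005% Triton X-100. Reaction started with 2 uM Z-FR-AMC; AMC fluorescence increase over 60 s gives rate.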
Lassa entry inh: inhibitors of Lassa virus binding or cell entry. actives 1.2% (n = 300,000). AID 540256. Potency, µM (top dose mostly 37.9 µM), inactives show top-dose activity change, negative = inhibition, usual class: inhibitors. Lassa virus pseudotype entry inhibition, cell reporter; control for the full effect not named in the record; active means well fitted inhibition curve with a large enough effect; inconclusive means small, poorly fitted or top-dose-only effect, or effect the other way; inactive means flat fitted curve, though single readings scatter; tested in HEK293 cells; also: % is scaled to controls: 0 for no effect and ±100 for the full control effect; nearly all actives have a fitted effect of over 50% in size; luciferase read-out
Cruzain inh Det: blocks cruzain activity in presence of Triton detergent. P25779. purified cruzain, Z-FR-AMC fluorescence, 0.01% Triton. Potency, µM, without a hit: max response, negative = inhibition, most hits filed as inhibitors. actives 0.43% (n = 200,000);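 also: plate controls were neutral wells for no effect and buffer without enzyme for full effect; nearly all actives have a fitted effect of over 40% in size; top concentration of the series not given in the record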
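Read-out: AMC fluorescence (360 nm excitation, 450 nm emission), four reads over 2 min, first-to-third difference used. Conditions: cruzain 1.5 nM, Z-FR-AMC 2 uM, pH 5.5 acetate, 5 mM DTT, 0.01% Triton X-100.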
Marburg entry inh: blocks Marburg virus binding to or entry into cells | actives 1.8% (n = 300,000) | AID 540276 | Marburg virus pseudotyped entry inhibition, cell reporter; control for the full effect not named in the record; about a third of the inactives were read at about 46 µM | Potency, µM (titrated, usually from 37.8 µM), inactives show at the top dose activity change, negative = inhibition, most hits filed as inhibitors; active = well fitted inhibition curve with a large enough effect; inconclusive = small, poorly fitted or top-dose-only effect, or effect the other way; inactive = flat fitted curve, though single readings scatter; tested in HEK293 cells; about a fifth of its hits are not listed in these tables; also: % is scaled to controls: 0 for no effect and ±100 for the full control effect; luciferase read-out
StopGo reporter: lowers the luciferase signal of an FMDV 2A StopGo reporter. human cells with a luciferase reporter of 2A StopGo recoding; control for the full effect not named in the record. Potency, µM (top dose mostly 57.9 µM), inactives show at the highest dose signal change, negative = less light. actives 1.2% (n = 410,000). AID 1159524; active = well fitted falling curve with a large enough effect; inconclusive = small, poorly fitted or top-dose-only effect; inactive = no such curve, though single readings can be large or run the other way; tested in HEK293T cells; also: % is scaled to controls: 0 for no effect and ±100 for the full control effect; nearly all actives have a fitted effect of over 45% in size; luciferase light after 4 h
RE007 growth inh: less growth of the S. pombe RE007 Vpr strain; S. pombe RE007 Vpr strain, BacTiter-Glo ATP luminescence, 24 h; control for the full effect not named in the record; Potency, µM (series often up to 92.2 µM), for inactives: at the highest dose activity change, negative = less growth; actives 0.21% (n = 360,000); active = well fitted falling curve with a large enough effect; inconclusive = small, poorly fitted or top-dose-only effect; inactive = no such curve, though single readings can be large or run the other way;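 also: % is scaled to controls: 0 for no effect and ±100 for the full control effect; nearly all actives have a fitted effect of over 50% in size; the assay follows cell death caused by Vpr and the record does not say whether a fall means rescue or toxicity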
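Fission yeast strain RE007, carrying one chromosomally integrated HIV-1 vpr copy, was seeded at OD 0.01 in PMG+AL medium with 23 nL pinned compound. After 24 h at 30 °C and 99% humidity, viability was read by BacTiter-Glo luminescence.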
NS1 function inh: influenza NS1 inhibition | S. cerevisiae slowed by influenza A NS1, growth recovery by OD600 | actives 0.4% (n = 270,000) | Potency, µM (titrated, usually from 46.1 µM), for the others: at the top dose activity, positive = more growth | AID 2326; active means well fitted rising curve with a large enough effect; inconclusive means small, poorly fitted or top-dose-only effect; inactive means no such curve, though single readings can be large or run the other way; also: nearly all actives have a fitted effect of over 50% in size
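In this qHTS, NS1 from influenza A is expressed in budding yeast, where it slows growth. Cells are switched from glucose to 2% galactose medium (pH 6.0, -URA), treated with compound, and growth recovery is read at OD600.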
Numbers without * were called inactive; ? = inconclusive; / = no result given; & = joins results of further samples; [ ] = dose if it differs, or a comment. Unless noted, calls follow the shape of the dose curve; as a rule, active = well fitted curve in the direction sought with a large enough effect; inconclusive = small, poorly fitted or top-dose-only effect, or another doubt; inactive = no such curve, though single readings can be large; an effect the other way counts as inactive or inconclusive. Potency is read from the fitted curve at half-maximal effect.

smiles | SARS PLpro yeast | Cruzain inh noDet | Lassa entry inh | Cruzain inh Det | Marburg entry inh | StopGo reporter | RE007 growth inh | NS1 function inh
COC(=O)CSc1nnc(-c2ccc3c(c2)OCO3)n1C | 4.7% | -0.2% | -3.1% | -0.9% | ? | 36.9%[activator] | 10.0% | -1.6%
COc1ccc(C2=CC(=O)N(Nc3ccccc3)C2=O)cc1 | -12.5% | / | -5.7% | / | ? | ? | 4.0% | /
CCc1ccc(NC(=O)[C@@H](NC(=O)[C@@H]2Cc3ccccc3CN2)C(C)CC)cc1 (stereo partly drawn) | -5.2% | / | / | / | / | 7.1% | -12.5% | 14.5%
COc1cccc(/C=C(/C#N)c2nc3ccccc3[nH]2)c1OC(C)C(=O)O (stereo not drawn) | -3.8% | / | / | / | / | -4.7% | -6.9% | 1.9%
COc1ccc(C(=O)n2nc(-c3ccccc3)nc2N)cc1OC | -5.4% | -9.0% | 12.2% | -1.0% | 7.1%[46.1 µM] | -10.6% | -8.8% | -1.9%
CCOC(=O)N1CCN(C(=O)C2CCN(S(=O)(=O)c3cc(OC)ccc3OC)CC2)CC1 | 1.1% | / | 3.0% | / | -2.7%[46.1 µM] | -2.0% | -5.3% | /
COc1ccc(NC(=O)COc2ccc3c(c2)CCC3)cc1 | -4.3% | / | -12.2%[46.1 µM] | / | ? | 21.5% | -3.5% | -16.2%
Cc1ccc(CNC(=O)CS(=O)Cc2nc(-c3ccccc3F)oc2C)cc1 (stereo not drawn) | 0.8% | / | -28.3%[46.1 µM] | / | 15.7%[46.1 µM] | 13.0% | -15.4% | 22.0%
Fc1ccccc1C1c2cccn2CCN1C(=S)Nc1ccc(Br)cc1 (stereo not drawn) | 0.9% | / | ? | / | ? | 22.0% | -14.3% | 14.5%
COc1cccc(C(=O)Nc2c(C(=O)NC(C)(C)C)oc3ccccc23)c1 | / | -5.5% | -18.3%[46.1 µM] | -3.5% | / | -29.4% | / | /
CC(=O)Nc1ccc(NC(=O)CN(c2cccc(C(C)=O)c2)S(C)(=O)=O)cc1 | 0.0% | / | 14.3% | / | 0.4%[46.1 µM] | -4.1% | -8.8% | 4.3%
CCc1nnc(NC(=O)c2ccc(S(=O)(=O)N(CCOC)CCOC)cc2)s1 | -3.2% | -8.7% | / | 1.5% | -4.5% | ? | 1.1% | 2.7%
COCCCNC(=O)CNC(=S)N(Cc1ccc(F)cc1)C1CCCCC1 | -1.0% | ? | -5.0% | 3.3% | -10.7% | 1.6% | 7.5% | -0.1%
COc1ccc2cc3cc(C(=O)NCc4ccccn4)oc3nc2c1 | 7.7% | ? | -13.4% | 31.6µM* | -11.5% | 4.4% | -3.5% | -1.2%
O=[N+]([O-])c1cc([N+](=O)[O-])c2nonc2c1Nc1ccccc1O | -8.8% | / | / | / | / | -5.2% | -16.2% | -49.2%
CCOC(=O)c1ccccc1NC(=O)Cn1nnc2sc3c(c2c1=O)CCCC3 | / | 0.0% | 17.8%[46.1 µM] | 1.0% | 5.7%[46.1 µM] | -29.3% | / | /
O=C(CSc1n[nH]c(-c2ccc(Cl)cc2Cl)n1)Nc1ccccn1 | -14.8% | -2.4% | 4.6% | -12.5% | -12.2% | -26.7% | 8.4% | -16.3%
COc1ccc(N(CC(=O)N2CCN(c3cccc(C)c3C)CC2)S(=O)(=O)c2c(C)noc2C)cc1 | -4.1% | 6.8% | ? | -3.2% | 6.9%&6.9%[46.1 µM] | -14.2%&-29.5% | 0.3% | 12.4%
Cc1ccc(S(=O)(=O)N2CCc3cc(C(=O)Nc4c(C)cccc4C(C)C)ccc32)cc1 | / | ? | -12.2%[46.1 µM] | -1.4% | ? | -17.0% | / | /
Cc1ccc(S(=O)(=O)CCC(=O)Nc2ccccc2Cl)cc1 | 1.2% | / | / | / | / | 17.9% | -9.0% | -7.0%
COC(=O)c1ccccc1-n1c(C)nc(=O)c(-c2ccccc2)c1C | -3.5% | / | / | / | / | -8.3% | 7.0% | 2.7%
COc1nc(Nc2ccc(-c3nc4ccccc4o3)cc2)nc(N2CCOCC2)n1 | / | / | 0.1% | / | ? | ? | 12.7% | -8.2%
CCCCNc1nc2ccccc2n1CC(=O)Nc1ccc2c(c1)OCCO2 | 0.9% | / | / | / | / | -1.6% | 0.7% | -3.9%
COc1cccc(OC)c1OCCOCCN1CCN(C)CC1 | -1.3% | / | 5.3%[46.1 µM] | / | 10.4%[46.1 µM] | 2.3% | -11.8% | 1.0%
CC12CC3CC(C)(C1)CC(Nc1nc(N4CCOCC4)nc4ccccc14)(C3)C2 | -0.4% | / | 0.7% | / | 3.8% | ? | 2.2% | -1.0%
CNC(=O)CSc1nccn1Cc1ccc(Cl)cc1 | -8.5% | / | ? | / | 25.4% | -5.9% | 27.4% | /
O=C(COC(=O)CCCNC(=O)c1ccc(Cl)cc1)Nc1ccc(Br)cc1 | -6.0% | -21.0% | 0.8% | -4.2% | 3.6% | -5.1% | 5.4% | 0.7%
Cc1oc(-c2ccccc2F)nc1CS(=O)(=O)CC(=O)N1CCN(c2cccc(C(F)(F)F)c2)CC1 | / | ? | 25.3%[46.1 µM] | -9.5% | ? | 35.5µM* | / | /
CS(=O)(=O)Cc1ccc(C(=O)NC2CCN(Cc3ccccc3)C2)cc1 (stereo not drawn) | 5.5% | / | 13.3%[46.1 µM] | / | 12.5%[46.1 µM] | 2.7% | -0.4% | -5.8%
CCC(=O)Oc1ccc(-c2nc(-c3cccnc3)no2)cc1 | 5.5% | 4.6% | ? | -2.9% | ? | 1.0% | ? | -53.2%
Cc1ccc(NC(=O)c2ccc3c(c2)S(=O)(=O)c2ccccc2C3=O)cc1S(=O)(=O)N1CCOCC1 | -1.1% | / | / | / | / | ? | 7.6% | -4.6%
O=C1CCc2cc(NS(=O)(=O)c3ccccc3)cc3c2N1CC3 | -21.2% | / | 17.3% | / | 6.3%[46.1 µM] | 14.5% | 0.5% | /
COc1cccc2cc(-c3nc4ccccc4[nH]3)c(=O)oc12 | -3.3% | / | ? | / | ? | 17.5% | -13.8% | -11.2%
Cn1c(Nc2ccccc2)nc2ccccc21 | -1.6% | / | / | / | / | 24.3% | -13.6% | -11.6%
COc1ccc(NC(C)=O)cc1NC(C)C(=O)Nc1ccc(F)c(F)c1F (stereo not drawn) | 6.8% | 6.5% | 13.4% | 9.9% | 0.3% | -20.2% | 18.0% | 0.3%
CCCc1cc(Nc2ccccc2C)n2ncnc2n1 | 1.5% | / | ? | / | 0.6% | -6.3% | 6.0% | 7.4%
c1coc(CNCC2OCCc3ccccc32)c1 (stereo not drawn) | -0.1% | -8.9% | -8.7% | 5.6% | 3.6% | / | -3.6% | -1.0%
Cc1ccc(C(=O)N/C(=C\c2ccc(-c3ccccc3[N+](=O)[O-])o2)C(=O)NCCN(C)C)cc1 | -6.2% | / | -5.1%[46.1 µM] | / | ? | -15.9% | 6.7% | -13.5%
CC(C)c1nc(SCC(=O)N2CCN(c3ccccc3)CC2)c2c(=O)n(C)c(=O)n(C)c2n1 | -3.0% | 1.4% | / | -0.6% | / | 20µM* | -5.3% | -114.9%
CC(C)C(C(=O)NCC1CCCO1)N(C(=O)CNS(=O)(=O)c1ccccc1)c1ccc(F)cc1 (stereo not drawn) | 0.8% | / | 9.1%[46.1 µM] | / | 0.2%[46.1 µM] | -3.5% | 8.6% | 2.3%
COc1ccc(CNC(=O)CCn2ccc3cc(S(=O)(=O)N4CCCC4)ccc32)cc1 | 5.9% | / | / | / | / | -5.1% | 4.3% | -7.4%
Cc1nc2nc(Cc3ccccc3)[nH]n2c(=O)c1Cl | -0.1% | 3.5% | 10.3% | 5.9% | 4.3% | -19.1% | -5.3% | -7.1%
Cc1cc(C)nc(NC(=O)c2cc3ccccc3o2)n1 | 1.3% | 2.0% | 9.6% | 1.3% | ? | / | -0.7% | -20.3%
COc1cc(NC(=O)CSc2nc3[nH]ncc3c(=O)n2-c2ccccc2C)cc(OC)c1OC | 1.2% | ? | 0.7%&4.0% | -1.3% | 2.6%&-5.6% | -24.7% | -9.2% | -7.5%
O=C(COc1ccc2ccccc2c1)N/N=C/c1ccccn1 | -1.9% | / | 0.0% | / | -6.4%[46.1 µM] | 2.9% | -15.4% | -4.5%
Cc1cc(C)c(C)c(S(=O)(=O)NCCCN2CCCC2=O)c1C | 0.4% | / | -4.2% | / | 20.3% | 56.0%[activator] | -17.2% | -0.6%
CCn1c(=N)n(CC(=O)C23CC4CC(CC(C4)C2)C3)c2ccccc21 | -13.9% | -6.7% | -1.7% | -6.8% | -1.4%&-1.4% | -23.8% | -14.3% | -44.8%
Cc1cc(C)c(Cn2cnc3nc4c(cc3c2=O)CCCC4)c(C)c1 | / | -0.9% | -24.9%[46.1 µM] | -2.0% | / | -9.6% | / | /
Nc1ccc(C(CC(=O)O)n2cccc2)cc1 (stereo not drawn) | 4.9% | / | 2.6% | / | 25.6%[46.1 µM] | 2.6% | -10.2% | /
Cc1ccc([N+](=O)[O-])cc1N/C=C1\CCCCC1=O | -1.3% | / | -36.6% | / | -18.2%[46.1 µM] | 38.0%[activator] | 4.8% | /
COc1cccc(NC(=O)Cn2nnc(C(=O)NCc3cccs3)c2N)c1 | -4.9% | -9.4% | 19.6%[46.1 µM] | 0.2% | / | -3.8%&-12.9% | -9.6% | 6.7%
CCCOc1ccc(/C(O)=C2/C(=O)C(=O)N(CCCN3CCOCC3)C2c2ccncc2)cc1 (stereo not drawn) | -1.7% | -2.5% | / | -16.0% | 0.7% | / | / | 10µM*
Clc1ccc(Nc2nc(-c3ccncc3)cs2)cc1 | / | / | 15.3% | / | 7.94µM* | 12.4% | -9.0% | /
COc1ccc(CC(=O)N(Cc2ccccc2)c2cccc(C)c2)cc1OC | 4.6% | / | -29.4% | / | -18.2% | ? | -12.9% | -10.5%
COc1ccccc1C(=O)NC(=O)COC(=O)C1CC2CCCC(C1)C2=O (stereo not drawn) | -4.5% | / | 3.9% | / | 15.9% | -1.2% | 3.5% | -2.3%

Screening results from PubChem BioAssay.
